Screening results as filed in PubChem BioAssay.
Mtb betalactam – beta-lactam sensitization of Mtb H37Rv, H37Rv. inhibition, % at 25 µM. AID 434955, 2010. M. tuberculosis H37Rv growth with meropenem, percent inhibition; hits of this screen are not shown here. 330,000 compounds, 0.27% hits;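 active = about 74% or more and at least 40 points above the plate without the antibiotic, then above 30% in a dose series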;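 also: growth measured after seven days incubation then overnight dye step; 0% = bacteria only wells and 100% = bacteria with antibiotic; twin plates without the antibiotic show which effects depend on it; some results filed as inactive read as strong as hits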
Mtb growth – M. tuberculosis H37Rv growth inhibitors, H37Rv strain (AID 1626). 220,000 compounds, 0.95% hits. M. tuberculosis H37Rv growth inhibition; higher % means a stronger effect. inhibition, % at 10 µM; hits with a dose series show IC50 in µM;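 active = confirmed in a dose series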;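 also: bacteria incubated seven days before Alamar blue readout; 0% = bacteria only wells and 100% = bacteria with antibiotic wells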
RecA intein inh – Mtb RecA intein splicing inhibitors, primary screen, biochemical, fluorescence, HTS; 290,000 compounds, 0.75% hits; inhibition, %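 (about 9 µM by stock and volumes)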; cell-free RecA intein splicing; Protein RecA (Mycobacterium tuberculosis (strain ATCC 25618 / H37Rv)), P9WHJ3; AID 2221, 2009; in the data active = inhibition above about 30%;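 also: 0% = vehicle wells and 100% = reference inhibitor control wells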
Target sequence (P9WHJ3 whole entry, looked up): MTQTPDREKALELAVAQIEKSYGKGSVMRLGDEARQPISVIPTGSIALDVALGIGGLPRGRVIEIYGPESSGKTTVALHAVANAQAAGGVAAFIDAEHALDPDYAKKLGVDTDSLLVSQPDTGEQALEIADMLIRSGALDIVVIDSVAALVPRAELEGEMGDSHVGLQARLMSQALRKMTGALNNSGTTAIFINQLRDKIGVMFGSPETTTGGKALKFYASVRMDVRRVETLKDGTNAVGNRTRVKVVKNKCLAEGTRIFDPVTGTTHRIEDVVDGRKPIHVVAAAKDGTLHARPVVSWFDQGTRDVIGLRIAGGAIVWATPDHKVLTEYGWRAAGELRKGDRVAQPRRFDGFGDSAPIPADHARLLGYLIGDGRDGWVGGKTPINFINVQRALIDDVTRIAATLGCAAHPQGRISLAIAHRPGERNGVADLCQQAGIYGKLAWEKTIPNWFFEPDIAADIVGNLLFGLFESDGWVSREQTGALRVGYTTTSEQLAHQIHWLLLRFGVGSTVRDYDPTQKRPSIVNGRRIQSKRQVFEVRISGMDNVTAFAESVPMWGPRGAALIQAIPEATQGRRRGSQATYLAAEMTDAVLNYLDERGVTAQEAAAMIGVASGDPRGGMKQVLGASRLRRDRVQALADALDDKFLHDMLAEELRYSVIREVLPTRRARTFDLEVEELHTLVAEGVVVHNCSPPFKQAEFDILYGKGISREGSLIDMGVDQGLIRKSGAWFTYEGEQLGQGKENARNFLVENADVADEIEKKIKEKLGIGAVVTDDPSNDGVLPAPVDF
YopH inh – YopH tyrosine phosphatase inhibitors, primary screen, biochemical, fluorescence Ex485/Em525. YopH tyrosine phosphatase [Yersinia enterocolitica]. inhibition, %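 (about 10 µM by stock and volumes)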. 140,000 compounds, 0.16% hits. AID 898, 2007;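 active = inhibition of 50% or more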;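 also: controls were vehicle for no effect and minimum signal wells for full effect; inactives centre near -20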
Arbovirus anti – antivirals against arbovirus infection, primary screen, cell-based, full library, 10K replicate subset. arbovirus infection cell-based antiviral screen. inhibition, % at 10 µM. 200,000 compounds, 0.37% hits. AID 1251, 2008;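 active = inhibition from about 30%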;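 also: bluetongue infection of BSR cells; cell survival read as ATP light after 72 h; 0% = infected wells without compound and 100% = uninfected wells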
Arbovirus anti repeat – second read-out of Arbovirus anti, no call of its own (marks repeat the call); inhibition, %; measured here: 10K subset replicate screen; many hits read low in the repeat;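 first of two repeat runs on a subset; 0% = infected and 100% = uninfected wells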
Active calls of the source: *. These rows are one share of the data. The share of hits here may be higher or lower than overall.

Cn1cnnc1SCC(=O)c1cccc([N+](=O)[O-])c1 was read as Mtb betalactam 12, Mtb growth -3%, RecA intein inh -0.3, YopH inh -1 and Arbovirus anti 4.
CN=c1scc(-c2ccc(F)cc2)n1/N=C/c1ccc(O)c(O)c1 was read as Mtb growth 7% and Arbovirus anti -20.
Screening CCN(CC)Cc1c(NC(=O)c2ccccc2)sc(C)c1C returned Mtb betalactam -5, Mtb growth -8%, RecA intein inh 1.0 and Arbovirus anti -1.
`COc1ccc(C2NC(=S)NC(C)=C2C(=O)c2ccccc2)cc1OC` (stereo not given) gave Mtb betalactam -8, Mtb growth -3%, RecA intein inh -0.5, YopH inh -25 and Arbovirus anti -2.
For Cc1ccc(S(=O)(=O)CCc2nnc(NC(=O)COc3cccc(C)c3)s2)cc1 the results were Mtb betalactam 4, Mtb growth 7%, RecA intein inh 0.7, YopH inh -31 and Arbovirus anti -8.
Screening Cc1cccc(C(=O)N[C@H](C(=O)OCC(=O)NC2CCS(=O)(=O)C2)C(C)C)c1 (stereo not given in full) returned Mtb betalactam 2, Mtb growth 5%, RecA intein inh 0.7, YopH inh -19 and Arbovirus anti -4.
For Cc1ccc(SCC(=O)Nc2ccccc2N2CCOCC2)cc1 the results were Mtb betalactam 4 and RecA intein inh 3.8.
Screening COc1ccc(-c2nc(CC(=O)O)cs2)cc1 returned Mtb betalactam -2, Mtb growth -4%, RecA intein inh -2.3, YopH inh -24 and Arbovirus anti -3.
`O=C(Nc1cccnc1)c1ccc2c(c1)C(=O)N(CC1CCCO1)C2=O` (stereo not given) gave Mtb betalactam -2, Mtb growth -2%, RecA intein inh -1.9 and Arbovirus anti -1.
For O=C(O)/C=C/C(=O)c1ccc2c(c1)CCc1ccccc1-2 the results were Mtb betalactam 28 and RecA intein inh 19.
`Cc1cc(C)c(OCC(=O)OCCNC(=O)c2cccnc2)c(C)c1` gave Mtb betalactam -2, Mtb growth -6%, RecA intein inh -2.3, YopH inh -30 and Arbovirus anti -2.
`COCCn1nc2cc(C(=O)NCC34CC5CC(CC(C5)C3)C4)ccc2c1OC` gave Mtb betalactam -16, Mtb growth -6%, RecA intein inh -1.6, YopH inh -31 and Arbovirus anti -4.
CC(=O)c1cnc2c(-c3ccccc3)c(C)nn2c1C was read as Mtb betalactam 1, RecA intein inh 0.7, YopH inh 31 and Arbovirus anti -3.
`Cc1ccc(S(=O)(=O)NC(=O)CSc2nc3ccccc3s2)cc1` gave Mtb betalactam -10, Mtb growth -8%, RecA intein inh 0.5, YopH inh -28 and Arbovirus anti 5.
For C=CCN(C(=O)c1ccccc1)C1CCS(=O)(=O)C1 (stereo not given) the results were Mtb betalactam -1 and RecA intein inh 0.1.
For CN(Cc1ccccc1)S(=O)(=O)c1ccc2[nH]c(=O)oc2c1 the results were Mtb betalactam -4, RecA intein inh -1.4, Arbovirus anti 17 and Arbovirus anti repeat 9.
For CC(C)c1nc(SCC(=O)N2CC(=O)Nc3ccccc32)c2ccccc2n1 the results were Mtb betalactam -1, Mtb growth 3%, RecA intein inh -1.4 and Arbovirus anti -2.
Screening O=C1CN(C(=O)COC(=O)Cc2ccccc2)c2ccccc2N1 returned Mtb betalactam 1, Mtb growth 0%, RecA intein inh 0.5 and Arbovirus anti 1.
CCOC(=O)c1c(C)c(C(=O)N2CCC3(CC2)OCCO3)c(C)n1CC was read as Mtb betalactam -7, Mtb growth -8%, RecA intein inh 1.0, YopH inh -46 and Arbovirus anti 0.
COc1ccc(C(=O)Nc2cc3c4c(c2)C(C)C(=O)N4CCC3)cc1OC (stereo not given) was read as Mtb betalactam -5 and RecA intein inh 3.3.
For CCOC(=O)C1CCN(C(=O)c2cc3c(=O)n4ccccc4nc3n2C)CC1 the results were Mtb betalactam -5, Mtb growth 0%, RecA intein inh -209 and Arbovirus anti 0.
For COc1ccc([N+](=O)[O-])cc1N(CC(O)CN1CCCCC1)S(=O)(=O)c1ccc(C)cc1 (stereo not given) the results were Mtb betalactam -3, Mtb growth 4%, RecA intein inh 0.4 and Arbovirus anti 15.
`CSc1ccc(CN2C(=O)NC3(CCCCC3)C2=O)cc1` gave Mtb betalactam 4, Mtb growth 2%, RecA intein inh -4.4 and Arbovirus anti 8.
Cc1ncc([N+](=O)[O-])n1CCOC(=O)NC(NCc1ccccc1Cl)C(Cl)(Cl)Cl (stereo not given) was read as Mtb betalactam 10, Mtb growth 22%, RecA intein inh 6.2, YopH inh -19 and Arbovirus anti 4.
For O=C(c1cccs1)c1coc2ccc(O)c(CN3CCOCC3)c12 the results were Mtb betalactam 4, Mtb growth -2%, RecA intein inh 4.2, YopH inh -45 and Arbovirus anti -7.
Screening COc1cccc(OCC(O)CN2CCN(C(c3ccccc3)c3ccccc3)CC2)c1 (stereo not given) returned Mtb betalactam 50 and RecA intein inh 7.9.
For N#Cc1ccccc1NC(=O)Nc1ccc(Cl)cc1 the results were Mtb betalactam -1, Mtb growth -18%, RecA intein inh 0.2, YopH inh -22 and Arbovirus anti 5.
Screening COc1cccc(OCc2nnc3n2N=C(c2ccccc2)C(CC(=O)O)S3)c1 (stereo not given) returned Mtb betalactam 1 and RecA intein inh 0.7.
For CC1CCN(CC(=O)N2CCN(c3ccccc3)CC2)CC1 the results were Mtb betalactam -2 and RecA intein inh -0.9.
For CCN(CC)C(=O)Cn1cc(C(=O)C(=O)NCc2cccnc2)c2ccccc21 the results were Mtb betalactam -3 and RecA intein inh -2.4.
Screening COc1cc(NC(=O)C2CCN(S(=O)(=O)c3ccc4c(c3)CC(C)N4C(C)=O)CC2)cc(OC)c1OC (stereo not given) returned Mtb betalactam -2 and RecA intein inh -0.8.
Screening CN(Cc1ccccc1)c1nc2c(c(=O)[nH]c(=O)n2C)n1CCCSc1ncccn1 returned Mtb betalactam -5, Mtb growth -8%, RecA intein inh 1.0, YopH inh 9 and Arbovirus anti 5.
For CSCC[C@H](NC(=O)OC(C)(C)C)c1nnc(SCc2ccccc2)o1 the results were Mtb betalactam -1, Mtb growth -1%, RecA intein inh 2.7, YopH inh -22 and Arbovirus anti 6.
CCN1CCCC1CNC(=O)C(=O)NC1CC1 (stereo not given) was read as Mtb betalactam 3, Mtb growth 0%, RecA intein inh -0.6 and Arbovirus anti -7.
C=CCn1c(O)c(Cc2ccc(OCC)cc2)c(=O)[nH]c1=O was read as Mtb betalactam -2 and RecA intein inh 0.7.
`COc1ccc(C(=O)Nc2c(-c3ccccc3)nc3ccccn23)c(OC)c1` gave Mtb betalactam -1 and RecA intein inh -0.4.
`O=[N+]([O-])c1ccccc1/C=C/CN1CCCCC1CO` (stereo not given) gave Mtb betalactam -3 and RecA intein inh -3.6.
For N#C/C(=C\c1ccc(O)c([N+](=O)[O-])c1)c1nc2ccccc2s1 the results were Mtb growth -4%, RecA intein inh 51* and Arbovirus anti 46*.
Screening CC(C)CN(C(=O)CN(C)C(=O)c1ccco1)c1c(N)n(CC(C)C)c(=O)[nH]c1=O returned Mtb betalactam 0 and RecA intein inh 2.4.
For Cc1ccc(S(=O)(=O)c2cc(Nc3ccccc3)ccc2O)cc1 the results were Mtb betalactam -5 and RecA intein inh 9.5.
Screening CCn1cc(C(=O)N[C@@H](CCSC)C(=O)NCCOC)c(=O)c2cc3c(cc21)OCO3 returned Mtb betalactam -8 and RecA intein inh 1.0.
Screening COC(=O)c1ccccc1NC(=O)C1(S(=O)(=O)c2ccc(Cl)cc2)CC1 returned Mtb betalactam 2 and RecA intein inh -0.8.
For CCCN(CCC)CCNS(=O)(=O)c1ccc2c(c1)CCN2C(=O)C1CCC1 the results were Mtb betalactam -2, Mtb growth 3%, RecA intein inh -1.2, YopH inh 0 and Arbovirus anti -9.
COc1cc(C(=O)Nc2ccc3nc4n(c(=O)c3c2)CCCC4)ccc1Br was read as Mtb betalactam 0 and RecA intein inh -1.8.
For CSc1nc2nc3c(cc2c(=O)n1-c1ccccc1C)COC(C)(C)C3 the results were Mtb betalactam 0, Mtb growth -4% and RecA intein inh 2.7.
`CC(Sc1ccccc1)C(=O)Nc1ccc(S(=O)(=O)N2CCOCC2)cc1` (stereo not given) gave Mtb betalactam -6, Mtb growth 5%, RecA intein inh -1.4, YopH inh 10 and Arbovirus anti 10.
For COc1ccccc1C(=O)NNC(=O)C12CC3CC(CC(C3)C1)C2 the results were Mtb betalactam 2 and RecA intein inh 2.2.
CC(=O)N1CC(C)Sc2ccc(S(=O)(=O)NCCc3ccccc3)cc21 (stereo not given) was read as Mtb betalactam -10 and RecA intein inh 2.5.
Screening CC(C)[C@H](NC(=O)Nc1ccccc1F)C(=O)O returned Mtb betalactam -6, Mtb growth 0%, RecA intein inh 0.2, YopH inh -11 and Arbovirus anti 1.
Cc1ccc(CSC2=NCCN2C(=O)C(C)Oc2ccccc2)cc1 (stereo not given) was read as Mtb betalactam 2, Mtb growth 5%, RecA intein inh -4.7 and Arbovirus anti 26.
For CC1SC2(CN3CCC2CC3)NC1=O (stereo not given) the results were Mtb betalactam -1, Mtb growth -2%, RecA intein inh -5.9, YopH inh -50 and Arbovirus anti -7.
Screening COc1ccc(OC)c(-c2csc(N(CC3CCCO3)C(=O)Cc3ccccc3)n2)c1 (stereo not given) returned Mtb betalactam -6, Mtb growth -2%, RecA intein inh 5.6 and Arbovirus anti -4.
`O=C(Nc1ccc(O)c2c(=O)cc(-c3ccccc3Cl)oc12)c1ccc(Cl)c(Cl)c1` gave Mtb betalactam 1, Mtb growth -2% and RecA intein inh 1.0.
Screening CC(C)CC(=O)NCc1ccc(F)cc1 returned Mtb betalactam -4, Mtb growth -10%, RecA intein inh -2.1, YopH inh 4 and Arbovirus anti 1.
CCN(CC)CCC(c1ccc(N(C)C)cc1)c1c(O)cc(OC)cc1OC (stereo not given) was read as Mtb betalactam 8, Mtb growth -1% and RecA intein inh -2.5.
Cc1cc(-c2[nH]nc3c2C(c2cccc(O)c2)C(C#N)=C(N)O3)c(C)s1 (stereo not given) was read as Mtb betalactam -3, Mtb growth -4%, RecA intein inh 83*, YopH inh -10 and Arbovirus anti 2.
`Cc1sc2ncnc(N(C)C3CCCCC3)c2c1C` gave Mtb betalactam 0 and RecA intein inh 13.
`CN(C)c1ccc(NC(=O)CN2CCC(N3CCCCC3)CC2)cc1` gave Mtb betalactam -1, Mtb growth -2%, RecA intein inh -3.0, YopH inh -14 and Arbovirus anti 3.
`CCOc1cc(CN2CCCC(CNC(=O)c3ccc(F)cc3)C2)ccc1OC` (stereo not given) gave Mtb betalactam -3, Mtb growth -4% and RecA intein inh 1.0.
Screening CSc1ccccc1C(=O)N1CCOCC1 returned Mtb betalactam -5, Mtb growth -11%, RecA intein inh -1.7, YopH inh -31 and Arbovirus anti 3.
Screening CCOc1cc(C(=O)NCC(=O)N2CCC3(CC2)NCCc2[nH]cnc23)cc(OCC)c1OCC returned Mtb betalactam 10 and RecA intein inh 1.9.

Gathered by group: those above containing a halogen (9)
CN=c1scc(-c2ccc(F)cc2)n1/N=C/c1ccc(O)c(O)c1 was read as Mtb growth 7% and Arbovirus anti -20.
Cc1ncc([N+](=O)[O-])n1CCOC(=O)NC(NCc1ccccc1Cl)C(Cl)(Cl)Cl (stereo not given) was read as Mtb betalactam 10, Mtb growth 22%, RecA intein inh 6.2, YopH inh -19 and Arbovirus anti 4.
For N#Cc1ccccc1NC(=O)Nc1ccc(Cl)cc1 the results were Mtb betalactam -1, Mtb growth -18%, RecA intein inh 0.2, YopH inh -22 and Arbovirus anti 5.
Screening COC(=O)c1ccccc1NC(=O)C1(S(=O)(=O)c2ccc(Cl)cc2)CC1 returned Mtb betalactam 2 and RecA intein inh -0.8.
COc1cc(C(=O)Nc2ccc3nc4n(c(=O)c3c2)CCCC4)ccc1Br was read as Mtb betalactam 0 and RecA intein inh -1.8.
Screening CC(C)[C@H](NC(=O)Nc1ccccc1F)C(=O)O returned Mtb betalactam -6, Mtb growth 0%, RecA intein inh 0.2, YopH inh -11 and Arbovirus anti 1.
`O=C(Nc1ccc(O)c2c(=O)cc(-c3ccccc3Cl)oc12)c1ccc(Cl)c(Cl)c1` gave Mtb betalactam 1, Mtb growth -2% and RecA intein inh 1.0.
Screening CC(C)CC(=O)NCc1ccc(F)cc1 returned Mtb betalactam -4, Mtb growth -10%, RecA intein inh -2.1, YopH inh 4 and Arbovirus anti 1.
`CCOc1cc(CN2CCCC(CNC(=O)c3ccc(F)cc3)C2)ccc1OC` (stereo not given) gave Mtb betalactam -3, Mtb growth -4% and RecA intein inh 1.0.
